Screening data from PubChem BioAssay.
UPR CHOP act: activators of apoptotic CHOP UPR arm, primary screen, cell-based, CHO-CHOP luciferase reporter, luminescence, uHTS; UPR activation; percent of tunicamycin response over DMSO baseline; activation, % at 10 µM; 330,000 compounds, 0.34% hits; AID 449763, 2010;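 active means at 10 µM dose, activation of 40% or more, normalized to positive control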;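 further: 100% = tunicamycin at 10 µg/mL and 0% = DMSO alone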
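Assay system: CHO cells with stable CHOP pathway luciferase reporter; Buffer or medium: F12 plus 10% serum; Times: 16-18 h cell attachment, then 6 h compound exposure, 37 °C; Signal: luciferase luminescence; Read-out basis: percent activation relative to tunicamycin control; Control set: tunicamycin high control, DMSO low control.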
UPR XBP1 act: activators of adaptive XBP1 UPR arm, primary screen, cell-based, CHO-XBP1 luciferase reporter, luminescence, uHTS | IRE1-XBP1 UPR activation; percent of tunicamycin response, DMSO as zero | activation, % at 20 µM | 330,000 compounds, 0.33% hits;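 active means versus positive control, 20 µM dose yields 30% or more activation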;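 further: 100% = tunicamycin at 10 µg/mL and 0% = DMSO only wells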
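assay system = CHO-XBP1 luciferase reporter cells | amount = 1000 cells/well | buffer or medium = F12 plus 10% FBS | compound dosing = single point, 20 µM final compound, 1% DMSO | incubation = 16-18 h cell attachment at 37 °C, then 6 h compound exposure | detection = Steady-Glo luminescence read | controls = tunicamycin 10 µg/mL and vehicle-only wells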
697 NFkB inh: inhibitors of PMA/ionomycin-induced NF-kB reporter, 697 cells, primary screen, B-cell NF-kB inhibitor project, cell-based, luminescence, uHTS. inhibition, % at 4 µM. 697 B-cell NF-kB luciferase reporter, 16 h. 330,000 compounds, 0.33% hits; in the data active means inhibition above about 35%
Jurkat NFkB inh: inhibitors of induced NF-kB luciferase reporter, primary screen, TCR NF-kB activation inhibitor project, cell-based, luminescence, uHTS | 330,000 compounds, 0.53% hits | inhibition, % at 4 µM | Jurkat, PMA/ionomycin-induced NF-kB luciferase reporter | AID 435003, 2010; in the data active means inhibition above about 50%
Active calls of the source: *. This is a subset (hit frequency here may not be typical).

Key to letters: A = UPR CHOP act; B = UPR XBP1 act; C = 697 NFkB inh; D = Jurkat NFkB inh
1. COc1ccccc1/C=N\Nc1cc(C)nc(-n2nc(C)cc2C)n1
  A: 81* | B: 6 | C: 13 | D: 12
2. C/C(=N\NC(=O)c1ccccc1F)c1ccccn1
  A: 5.8 | B: -7 | C: -177 | D: 90*
3. Cc1cc(C)n(-c2ccc(Cl)c(C(=O)O)n2)n1
  A: 0.5 | B: -2 | C: -32 | D: -9
4. CC(C)C1Cc2c(sc3c2c(=O)n(Cc2ccccc2)c2nncn32)CO1 (stereo not given)
  A: -0.3 | B: -3 | C: -4 | D: 0
5. O=C1NCCOC(=O)[C@@H](Cc2ccc(F)cc2)CC/C=C/C[C@@H]1CC(=O)N(CCO)Cc1ccccc1
  A: 0.5 | B: -4 | C: 9 | D: 1
6. CCC1Nc2ncnc(N3CCN(c4ccccn4)CC3)c2N(Cc2ccc(Cl)cc2)C1=O (stereo not given)
  A: 1.9 | B: 1 | C: 10 | D: 1
7. Cc1ccc(NC(=S)NC(=O)c2ccc(-c3ccc(Cl)cc3)o2)c(O)c1
  A: 0.8 | B: -2 | C: -78 | D: -24
8. O=C(Oc1ccc(Cl)c2cccnc12)c1ccco1
  A: 38 | B: 9 | C: 18 | D: 10
9. O=C1N[C@@H](c2ccccc2)COC(=O)[C@@H](Cc2ccc(F)cc2)CC/C=C/C[C@@H]1CC(=O)N(CCO)Cc1ccccc1
  A: 1.9 | B: 1 | C: -14 | D: 1
10. Cc1ccnc(SCc2cc(=O)c(OC(=O)c3ccc(Cl)c([N+](=O)[O-])c3)co2)n1
  A: 1.3 | B: -2 | C: -10 | D: -5
11. CC1CN(c2ncnc3c2c(-c2ccccc2)cn3-c2ccc(F)cc2)CC(C)O1 (stereo not given)
  A: -1.8 | B: 0 | C: -4 | D: -4
12. O=C1NC[C@H](c2ccccc2)OC(=O)[C@H](Cc2ccc(F)cc2)C/C=C\C[C@@H]1CC(=O)N(CCO)Cc1ccccc1
  A: 0.0 | B: -2 | C: 3 | D: -5
13. O=C(N/N=C/c1ccccn1)c1cc(Br)ccc1O
  A: 1.9 | B: 8 | C: -1 | D: 0
14. O=C(C1CCN(S(=O)(=O)c2cccc3cccnc23)CC1)N1CCn2c1nc1ccccc12
  A: -0.3 | B: 0 | C: 2 | D: 4
15. COc1ccc(CN2C(=O)C(C)Nc3ncnc(N4CCN(c5ccccn5)CC4)c32)cc1 (stereo not given)
  A: 0.9 | B: 2 | C: 7 | D: 9
16. CC(C)[N+]1(C)[C@@H]2CC[C@@H]1CC(OC(=O)C(CO)c1ccccc1)C2 (stereo not given in full)
  A: 0.2 | B: -7 | C: 10 | D: 17
17. O=c1c2cc(Cl)ccc2[nH]c(=S)n1Cc1ccccn1
  A: 3.2 | B: -1 | C: -3 | D: -24
18. O=C1NC[C@@H](c2ccccc2)OC(=O)[C@@H](Cc2ccc(F)cc2)C/C=C\C[C@@H]1CC(=O)N(CCO)Cc1ccccc1
  A: 4.2 | B: 0 | C: -13 | D: 4
19. O=C1N[C@@H](c2ccccc2)COC(=O)[C@@H](Cc2ccc(F)cc2)CC/C=C/C[C@H]1CC(=O)N(CCO)Cc1ccccc1
  A: 6.4 | B: 1 | C: -7 | D: -5

Arranged by heavy-atom count (ascending): eight of the compounds above.
Key to letters: A = UPR CHOP act; B = UPR XBP1 act; C = 697 NFkB inh; D = Jurkat NFkB inh
13. O=C(N/N=C/c1ccccn1)c1cc(Br)ccc1O
  A: 1.9 | B: 8 | C: -1 | D: 0
17. O=c1c2cc(Cl)ccc2[nH]c(=S)n1Cc1ccccn1
  A: 3.2 | B: -1 | C: -3 | D: -24
16. CC(C)[N+]1(C)[C@@H]2CC[C@@H]1CC(OC(=O)C(CO)c1ccccc1)C2 (stereo not given in full)
  A: 0.2 | B: -7 | C: 10 | D: 17
10. Cc1ccnc(SCc2cc(=O)c(OC(=O)c3ccc(Cl)c([N+](=O)[O-])c3)co2)n1
  A: 1.3 | B: -2 | C: -10 | D: -5
11. CC1CN(c2ncnc3c2c(-c2ccccc2)cn3-c2ccc(F)cc2)CC(C)O1 (stereo not given)
  A: -1.8 | B: 0 | C: -4 | D: -4
15. COc1ccc(CN2C(=O)C(C)Nc3ncnc(N4CCN(c5ccccn5)CC4)c32)cc1 (stereo not given)
  A: 0.9 | B: 2 | C: 7 | D: 9
12. O=C1NC[C@H](c2ccccc2)OC(=O)[C@H](Cc2ccc(F)cc2)C/C=C\C[C@@H]1CC(=O)N(CCO)Cc1ccccc1
  A: 0.0 | B: -2 | C: 3 | D: -5
19. O=C1N[C@@H](c2ccccc2)COC(=O)[C@@H](Cc2ccc(F)cc2)CC/C=C/C[C@H]1CC(=O)N(CCO)Cc1ccccc1
  A: 6.4 | B: 1 | C: -7 | D: -5
